High-throughput results: PubChem, Broad Institute
Yeast UUG start: modulators of start codon recognition fidelity in yeast; S. cerevisiae UUG-firefly luciferase reporter, luminescence/redox ratio; activity score, % at 18.7 µM; actives 0.13% (n = 350,000); AID 602363;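 active = replicate mean at a twofold rise or more, about +100% in these data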;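 also: firefly luciferase made from a UUG start codon reports start codon fidelity; reporter light over untreated wells divided by growth signal over untreated wells; some hits fall short of that in this replicate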
Env fusion inh: HIV envelope-mediated fusion inhibition. HeLa-JRFL Env/CEM21 cell fusion, luciferase. inhibition, % at 12.3 µM. AID 651610. actives 1.1% (n = 360,000);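 active = mean replicate inhibition score of at least 50 and every replicate individually at or above 50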;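 also: 0% = plate neutral controls and 100% = maraviroc near 300 nM; one replicate is shown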
An asterisk follows results filed as active; [ ] = another dose, or the depositor's remark.

canonical_smiles	Yeast UUG start	Env fusion inh
C[C@H](CO)N1C[C@H](C)[C@@H](CN(C)C(=O)c2ccncc2)Oc2cc(C3=CCCCC3)ccc2S1(=O)=O	-9.3	16.5[16.7 µM]
CC(C)NC(=O)N(C)C[C@@H]1Oc2c(NC(=O)C3CCOCC3)cccc2C(=O)N([C@@H](C)CO)C[C@@H]1C	-11.3	-23.4[16.7 µM]
C[C@H]1CN([C@@H](C)CO)C(=O)c2cc(NS(=O)(=O)c3cccs3)ccc2O[C@@H]1CN(C)C(=O)Nc1ccc(F)cc1	-4.8	4.7[16.7 µM]
CC(C)C#Cc1ccc2c(c1)O[C@H](CN(C)Cc1ccccn1)[C@H](C)CN([C@H](C)CO)S2(=O)=O	-7.7	-10.5[16.7 µM]
COCC(=O)Nc1ccc2c(c1)[C@@H]1C[C@H](CC(=O)N3CCN(C)CC3)O[C@H](CO)[C@@H]1O2	-6.0	6.4[16.7 µM]
C[C@H](NC(=O)C[C@H]1CC[C@@H]2[C@H](COC[C@H](O)CN2Cc2cc(F)ccc2F)O1)c1ccccc1	3.8	-0.4[16.7 µM]
C[C@@H]1CCCCO[C@H](CN(C)C(=O)c2ccncc2)[C@H](C)CN([C@H](C)CO)C(=O)c2cc(NS(=O)(=O)c3cn(C)cn3)ccc2O1	5.2	-6.5[16.7 µM]
C[C@@H]1CCCCO[C@H](CN(C)S(=O)(=O)c2cccs2)[C@@H](C)CN([C@@H](C)CO)C(=O)c2cc(NC(=O)c3ccccc3)ccc2O1	-3.7	15.3[16.7 µM]
C[C@H](CO)N1C[C@H](C)[C@@H](CN(C)Cc2ccccn2)Oc2ncc(C#CC(C)(C)O)cc2C1=O	-9.0	6.4[16.7 µM]
C[C@H](CO)N1C[C@H](C)[C@@H](CN(C)CC2CCCCC2)Oc2ccc(NC(=O)Nc3ccc(F)cc3)cc2C1=O	2.4	12.6[16.7 µM]
O=C(NC1CCCCC1)N[C@H]1CC[C@H](CCNS(=O)(=O)c2ccc(Cl)cc2)O[C@H]1CO	20.4	5.4[16.7 µM]
COc1ccc(S(=O)(=O)Nc2ccc3c(c2)CC(=O)N([C@H](C)CO)C[C@H](C)[C@H](CN(C)S(=O)(=O)c2cccs2)O3)cc1	13.1	62.1*[16.7 µM]
COc1ccc(S(=O)(=O)Nc2ccc3c(c2)CC(=O)N([C@@H](C)CO)C[C@H](C)[C@H](CN(C)Cc2ccc(C(=O)O)cc2)O3)cc1	-2.5	-0.6[16.7 µM]
COc1ccc(-c2cnc3c(c2)C(=O)N([C@H](C)CO)C[C@H](C)[C@@H](CN(C)C(=O)CN(C)C)O3)cc1	5.9	-6.6[16.7 µM]
C[C@@H]1CN([C@@H](C)CO)S(=O)(=O)c2ccc(/C=C/c3ccccc3)cc2O[C@@H]1CN(C)C(=O)c1ccc2c(c1)OCO2	-18.8	11.4[16.7 µM]
C[C@@H]1CCCCO[C@H](CN(C)C(=O)Nc2ccc3c(c2)OCO3)[C@H](C)CN([C@H](C)CO)C(=O)c2cc(NC(=O)Cc3ccccc3)ccc2O1	-6.0	17.2[16.7 µM]
Cc1noc(C)c1NC(=O)N(C)C[C@@H]1Oc2ccc(NS(=O)(=O)c3c(C)noc3C)cc2C(=O)N([C@@H](C)CO)C[C@H]1C	-7.6	-12.5[16.7 µM]
O=C(Cc1ccccn1)NCC[C@H]1CC[C@H](NC(=O)Nc2ccc(C(F)(F)F)cc2)[C@@H](CO)O1	8.9	3.5[16.7 µM]
CCNC(=O)C[C@@H]1CC[C@H]2[C@H](COc3ccc(NC(=O)Nc4ccccc4OC)cc3C(=O)N2C)O1	5.2	-3.4[16.7 µM]
Cc1noc(C)c1NC(=O)Nc1ccc2c(c1)C(=O)N([C@H](C)CO)C[C@@H](C)[C@@H](CN(C)Cc1ccc3c(c1)OCO3)OCCCC[C@H](C)O2	3.9	-10.6[16.7 µM]
CO[C@H]1CN(C)C(=O)c2ccc(NC(=O)Cc3ccccc3)cc2OC[C@@H](C)N(CC2CC2)C[C@@H]1C	-0.2	-8.1[16.7 µM]
C[C@H]1CN([C@@H](C)CO)C(=O)Cc2cc(NC(=O)CCCCCC(=O)Nc3ccccc3N)ccc2O[C@H]1CN(C)Cc1ccncc1	-1.4	-2.7[16.7 µM]
CNC(=O)C[C@@H]1CC[C@H]2[C@H](COc3ccc(NC(=O)C(C)C)cc3C(=O)N2C)O1	1.5	-37.1[16.7 µM]
C[C@@H]1CN([C@@H](C)CO)C(=O)c2cccc(NC(=O)Nc3ccc4c(c3)OCO4)c2O[C@H]1CN(C)Cc1ccccc1	7.1	1.6[16.7 µM]
O=C(C[C@H]1C=C[C@@H](NC(=O)CN2CCOCC2)[C@H](CO)O1)NC1CCCCC1	2.4	3.8[16.7 µM]

The list goes on:
canonical_smiles	Yeast UUG start	Env fusion inh
CO[C@@H]1CN(C)C(=O)c2ccc(NC(=O)Nc3ccccc3)cc2OC[C@@H](C)N(C(C)=O)C[C@@H]1C	11.5	8.9[16.7 µM]
Cc1noc(C)c1NC(=O)Nc1ccc2c(c1)C(=O)N([C@H](C)CO)C[C@@H](C)[C@@H](CN(C)C(=O)Nc1ccccc1)OCCCC[C@@H](C)O2	20.6	-5.2[16.7 µM]
C[C@@H]1CN([C@H](C)CO)C(=O)c2cccc(NC(=O)c3ccc(-c4nccs4)cc3)c2O[C@@H]1CN(C)C(=O)Nc1ccc(F)cc1	7.3	-140.6[16.7 µM]
CN(C)CC(=O)Nc1ccc2c(c1)[C@H]1C[C@H](CC(=O)N3CCOCC3)O[C@H](CO)[C@H]1O2	-14.1	2.7[16.7 µM]
C[C@@H]1CN([C@H](C)CO)S(=O)(=O)c2ccc(C#Cc3ccncc3)cc2O[C@H]1CN(C)S(=O)(=O)c1ccc(F)cc1	2.6	18.1[16.7 µM]
COc1ccccc1C(=O)Nc1ccc2c(c1)C(=O)N(C)C[C@H](OC)[C@H](C)CN(C(C)=O)[C@@H](C)CO2	-0.8	-5.1[16.7 µM]
Cc1ccc(S(=O)(=O)Nc2ccc3c(c2)CC(=O)N([C@@H](C)CO)C[C@H](C)[C@H](CN(C)Cc2ccc(C(=O)Nc4ccccc4N)cc2)O3)cc1	-0.4	-62.5[16.7 µM]
C[C@H]1CCCCO[C@H](CN(C)S(=O)(=O)c2ccccc2)[C@@H](C)CN([C@@H](C)CO)C(=O)c2cc(NS(=O)(=O)c3cccs3)ccc2O1	-1.3	-1.2[16.7 µM]
CC(C)NC(=O)Nc1ccc2c(c1)C(=O)N([C@@H](C)CO)C[C@@H](C)[C@@H](CN(C)S(=O)(=O)c1cn(C)cn1)O2	10.1	-10.1[16.7 µM]
COc1ccc(S(=O)(=O)Nc2ccc3c(c2)C(=O)N([C@@H](C)CO)C[C@@H](C)[C@H](CN(C)C(=O)Nc2ccc4c(c2)OCO4)OCCCC[C@H](C)O3)cc1	9.3	9.3[16.7 µM]
C[C@@H]1CN([C@H](C)CO)S(=O)(=O)c2ccc(-c3ccccc3F)cc2O[C@@H]1CN(C)C(=O)C1CC1	-1.4	12.2[16.7 µM]
O=C(C[C@H]1C[C@H]2c3cc(NC(=O)C4CCOCC4)ccc3O[C@H]2[C@H](CO)O1)NCc1ccc(Cl)cc1	-4.1	-8.0[16.7 µM]
COc1ccc(NC(=O)N(C)C[C@H]2Oc3c(cccc3N(C)C)C(=O)N([C@H](C)CO)C[C@H]2C)cc1	-10.7	-1.2[16.7 µM]
C[C@@H]1CN([C@@H](C)CO)C(=O)c2cc(NC(=O)Nc3ccc(F)cc3)ccc2O[C@@H]1CN(C)Cc1ccccc1	2.8	-7.6[16.7 µM]
C[C@H]1CN([C@@H](C)CO)S(=O)(=O)c2ccc(C#CCC3CCCC3)cc2O[C@@H]1CN(C)C	16.9	19.2[16.7 µM]
CNC[C@H]1Oc2ccc(NC(=O)Nc3ccc(C(F)(F)F)cc3)cc2CC(=O)N([C@@H](C)CO)C[C@@H]1C	33.0	-22.5[16.7 µM]
COc1ccc(NC(=O)Nc2ccc3c(c2)C(=O)N([C@@H](C)CO)C[C@H](C)[C@H](CN(C)Cc2ccc(C(F)(F)F)cc2)O3)cc1	32.0	28.7[16.7 µM]
C[C@H](CO)N1C[C@H](C)[C@H](CN(C)C(=O)NC2CCCCC2)Oc2ccc(NC(=O)Nc3ccc(F)cc3)cc2CC1=O	0.9	11.3[16.7 µM]
C[C@@H]1CN([C@@H](C)CO)C(=O)Cc2cc(NS(=O)(=O)c3cn(C)cn3)ccc2O[C@H]1CN(C)S(C)(=O)=O	44.2	25.2[16.7 µM]
C[C@@H]1CN([C@H](C)CO)C(=O)c2cccc(NC(=O)Nc3ccc4c(c3)OCO4)c2O[C@@H]1CN(C)Cc1ccc(-c2ccccc2)cc1	1.5	-17.7[16.7 µM]
C/C=C/c1ccc2c(c1)O[C@@H](CN(C)C(=O)NC(C)C)[C@@H](C)CN([C@H](C)CO)S2(=O)=O	8.5	-3.7[16.7 µM]
C[C@@H]1CN([C@H](C)CO)S(=O)(=O)c2ccc(-c3cccnc3)cc2O[C@@H]1CN(C)C(=O)CN(C)C	7.8	-13.8[16.7 µM]
CCCC#Cc1cnc2c(c1)C(=O)N([C@H](C)CO)C[C@@H](C)[C@H](CN(C)C(=O)Cc1cccnc1)O2	14.4	-10.4[16.7 µM]
C[C@H]1CN([C@@H](C)CO)C(=O)c2cc(-c3cccc(C(=O)N(C)C)c3)cnc2O[C@@H]1CN(C)S(=O)(=O)c1ccc(F)cc1	7.7	15.1[16.7 µM]
C[C@@H]1CN([C@H](C)CO)C(=O)c2cc(NS(=O)(=O)c3ccccc3)ccc2O[C@@H](C)CCCCO[C@H]1CN(C)C(=O)Nc1ccc(C(F)(F)F)cc1	-0.5	23.6[16.7 µM]

Grouped by structure, the entries above containing a Cl atom.
canonical_smiles	Yeast UUG start	Env fusion inh
O=C(NC1CCCCC1)N[C@H]1CC[C@H](CCNS(=O)(=O)c2ccc(Cl)cc2)O[C@H]1CO	20.4	5.4[16.7 µM]
O=C(C[C@H]1C[C@H]2c3cc(NC(=O)C4CCOCC4)ccc3O[C@H]2[C@H](CO)O1)NCc1ccc(Cl)cc1	-4.1	-8.0[16.7 µM]

The list continues.
canonical_smiles	Yeast UUG start	Env fusion inh
O=C(C[C@H]1CC[C@H]2[C@@H](COC[C@H](O)CN2CCC(F)(F)F)O1)N1CCC(Cc2ccccc2)CC1	5.5	32.1[16.7 µM]
COC(=O)C[C@@H]1CC[C@@H]2[C@H](COc3ccc(NS(C)(=O)=O)cc3C(=O)N2C)O1	-25.1	2.4[16.7 µM]
CC(C)NC(=O)Nc1ccc2c(c1)C(=O)N(C)[C@H]1CC[C@H](CC(=O)Nc3ccc(F)cc3)O[C@@H]1CO2	-9.4	-6.9[16.7 µM]
CN(C)CC(=O)N[C@@H]1C=C[C@H](CC(=O)NCc2ccc(Cl)cc2)O[C@H]1CO	-10.4	9.0[16.7 µM]
CC(C)NC(=O)N(C)C[C@H]1OCCCC[C@H](C)Oc2ccc(NS(=O)(=O)c3ccc(F)cc3)cc2C(=O)N([C@H](C)CO)C[C@@H]1C	-6.2	-144.6[16.7 µM]
C[C@@H]1CN([C@H](C)CO)C(=O)Cc2cc(NC(=O)C3CC3)ccc2O[C@H]1CN(C)S(=O)(=O)c1cn(C)cn1	2.1	-0.7[16.7 µM]
C[C@@H]1CN([C@H](C)CO)C(=O)c2cc(C#Cc3ccccc3)cnc2O[C@@H]1CN(C)C(=O)C1CC1	1.1	-21.5[16.7 µM]
COc1ccc(S(=O)(=O)N(C)C[C@@H]2OCCCC[C@@H](C)Oc3ccc(NC(=O)Nc4cccc5ccccc45)cc3C(=O)N([C@H](C)CO)C[C@@H]2C)cc1	-11.0	13.1[16.7 µM]
CN(C)C(=O)C[C@H]1CC[C@@H]2[C@H](COC[C@@H](O)CN2CC2CCCCC2)O1	-8.4	6.7[16.7 µM]
C[C@H](CO)N1C[C@H](C)[C@H](CN(C)S(=O)(=O)c2ccc(Cl)cc2)Oc2ccc(NC(=O)NC3CCCCC3)cc2CC1=O	0.0	26.8[16.7 µM]
COC(=O)C[C@@H]1CC[C@H]2[C@H](COc3ccc(NC(=O)c4ccccc4OC)cc3C(=O)N2C)O1	22.3	1.6[16.7 µM]
C[C@H](CO)N1C[C@H](C)[C@H](CN(C)Cc2ccc(Oc3ccccc3)cc2)Oc2ccc(NC(=O)Nc3ccc(C(F)(F)F)cc3)cc2CC1=O	7.2	15.9[16.7 µM]
COc1ccc(S(=O)(=O)N(C)C[C@H]2Oc3ccc(NS(C)(=O)=O)cc3CC(=O)N([C@H](C)CO)C[C@H]2C)cc1	-15.4	10.7[16.7 µM]
C[C@@H]1CCCCO[C@@H](CN(C)C(=O)Nc2ccc(C(F)(F)F)cc2)[C@H](C)CN([C@H](C)CO)C(=O)c2cc(NC(=O)c3ccncc3)ccc2O1	12.9	-3.9[16.7 µM]
C[C@@H]1CCCCO[C@H](CN(C)Cc2ccc(C(=O)O)cc2)[C@H](C)CN([C@H](C)CO)C(=O)c2cc(NC(=O)Nc3ccc(C(F)(F)F)cc3)ccc2O1	-5.8	13.7[16.7 µM]
Cc1noc(C)c1S(=O)(=O)N(C)C[C@@H]1OCCCC[C@@H](C)Oc2ccc(NC(=O)C3CCCCC3)cc2C(=O)N([C@H](C)CO)C[C@H]1C	4.3	-26.2[16.7 µM]
C[C@@H]1CN([C@H](C)CO)C(=O)c2cccc(NS(=O)(=O)c3ccc(Cl)cc3)c2O[C@H]1CN(C)S(=O)(=O)c1ccccc1	22.5	-0.3[16.7 µM]

A portion of the library; count on the stated rates, not on these rows.
